Source: PubChem (Broad Institute)
NOMO-1 viab – NOMO-1 AML cell viability reduction, primary screen, STK33 inhibitor project, CellTiter-Glo luminescence; NOMO-1 AML viability, 72 h; AID 2330, 2010; inhibition, % (no concentration beside the values); actives 7.5% (n = 37,000);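 active = most replicates above 80%; inconclusive = exactly half above 80%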;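 also: wells of about 30 µL received 25 nL stock; 0% = median of vehicle wells and 100% = reference inhibitor level; the first replicate is given; inactives centre near 10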
An asterisk follows results filed as active; ? = inconclusive.

SMILES | NOMO-1 viab
Cc1c(-c2ccccc2)[n+](=O)c(-c2ccco2)c(C)n1[O-] | -15
Cc1noc(C)c1S(=O)(=O)N(C)C[C@H]1Oc2ccc(NS(=O)(=O)c3ccccc3)cc2CC(=O)N([C@@H](C)CO)C[C@H]1C | 13
COc1ccc(CN(C)C[C@H]2Oc3ccc(NS(=O)(=O)c4ccc(F)cc4)cc3C(=O)N([C@@H](C)CO)C[C@@H]2C)cc1 | 14
Cc1noc(C)c1NC(=O)N(C)C[C@H]1Oc2c(NC(=O)c3ccncc3)cccc2C(=O)N([C@@H](C)CO)C[C@@H]1C | -18
CCN(CC)CCNc1ncnc2sc3c(c12)CC(C)(C)OC3 | 25
Oc1ccc(-n2cccc2)cc1 | 37
CC(C)NC(=O)Nc1ccc2c(c1)C(=O)N([C@@H](C)CO)C[C@H](C)[C@@H](CN(C)C(=O)Nc1ccc(C(F)(F)F)cc1)O2 | 19
C[C@@H]1CN([C@H](C)CO)C(=O)c2cccc(NC(=O)NC3CCCCC3)c2O[C@@H]1CN(C)C(=O)Nc1cccc2ccccc12 | 52
C[C@H]1CN([C@@H](C)CO)C(=O)c2cc(NC(=O)Cc3cn(C)c4ccccc34)ccc2O[C@@H]1CN(C)C(=O)NC1CCCCC1 | 28
C[C@H](CO)N1C[C@H](C)[C@@H](CN(C)C(=O)Nc2cccc3ccccc23)Oc2ccc(NS(=O)(=O)c3cn(C)cn3)cc2C1=O | 21
COc1ccc(NC(=O)Nc2cccc3c2O[C@H](CN(C)C(=O)Nc2ccc(OC)cc2)[C@@H](C)CN([C@H](C)CO)C3=O)cc1 | -3
c1ccc(Cn2c3ccccc3c3nnc(SCc4ccc5nonc5c4)nc32)cc1 | 16
C[C@H](CO)N1C[C@H](C)[C@H](CN(C)Cc2ccc(C(F)(F)F)cc2)Oc2c(NC(=O)C3CCOCC3)cccc2C1=O | -3
COc1ccc(S(=O)(=O)Nc2ccc3c(c2)C(=O)N([C@H](C)CO)C[C@H](C)[C@@H](CN(C)C(=O)CCC(F)(F)F)OCCCC[C@@H](C)O3)cc1 | 30
C[C@@H]1CN([C@H](C)CO)C(=O)c2cc(NC(=O)Nc3ccc(C(F)(F)F)cc3)ccc2O[C@@H]1CN(C)Cc1ccc(-c2ccccc2)cc1 | -12
COc1ccc(Cl)cc1N(CC(=O)Nc1ccccc1C(F)(F)F)S(C)(=O)=O | -2
C[C@@H]1CN([C@H](C)CO)C(=O)c2cc(NC(=O)Nc3ccc4c(c3)OCO4)ccc2O[C@@H]1CN(C)Cc1ccc(C(=O)Nc2ccccc2N)cc1 | ?
COc1ccccc1CCNC(=O)Nc1cccc([N+](=O)[O-])c1 | 31
COc1ccccc1C1C(C(=O)Nc2ccc(C)cc2C)=C(C)Nc2nnnn21 (configuration not stated) | 16
Cc1ccc(NC(=O)CCC(=O)c2ccc(Oc3ccccc3)cc2)cc1 | 12
C[C@@H]1CCCCO[C@H](CN(C)Cc2ccc3c(c2)OCO3)[C@@H](C)CN([C@H](C)CO)C(=O)c2cc(NS(=O)(=O)c3ccccc3)ccc2O1 | 47
Cc1coc(C)c1C(=O)CC1(O)C(=O)N(Cc2cccc3ccccc23)c2ccccc21 (configuration not stated) | 40
C[C@@H]1CN([C@@H](C)CO)C(=O)c2cc(NC(=O)Nc3ccc(F)cc3)ccc2O[C@@H]1CN(C)Cc1ccc2c(c1)OCO2 | 19
NC(=O)CN1C(=O)C(O)(CC(=O)c2ccc(Cl)cc2Cl)c2ccccc21 (configuration not stated) | -6
C[C@H]1CN([C@@H](C)CO)C(=O)c2cc(NS(=O)(=O)c3ccccc3)ccc2O[C@H]1CN(C)C(=O)Nc1ccc(C(F)(F)F)cc1 | 13

Not a retest: entries from further up.
SMILES | NOMO-1 viab
Cc1c(-c2ccccc2)[n+](=O)c(-c2ccco2)c(C)n1[O-] | -15
Cc1noc(C)c1S(=O)(=O)N(C)C[C@H]1Oc2ccc(NS(=O)(=O)c3ccccc3)cc2CC(=O)N([C@@H](C)CO)C[C@H]1C | 13
COc1ccc(CN(C)C[C@H]2Oc3ccc(NS(=O)(=O)c4ccc(F)cc4)cc3C(=O)N([C@@H](C)CO)C[C@@H]2C)cc1 | 14
Cc1noc(C)c1NC(=O)N(C)C[C@H]1Oc2c(NC(=O)c3ccncc3)cccc2C(=O)N([C@@H](C)CO)C[C@@H]1C | -18
CCN(CC)CCNc1ncnc2sc3c(c12)CC(C)(C)OC3 | 25
Oc1ccc(-n2cccc2)cc1 | 37

The listing picks up, repeating the four entries before the break.
SMILES | NOMO-1 viab
Cc1coc(C)c1C(=O)CC1(O)C(=O)N(Cc2cccc3ccccc23)c2ccccc21 (configuration not stated) | 40
C[C@@H]1CN([C@@H](C)CO)C(=O)c2cc(NC(=O)Nc3ccc(F)cc3)ccc2O[C@@H]1CN(C)Cc1ccc2c(c1)OCO2 | 19
NC(=O)CN1C(=O)C(O)(CC(=O)c2ccc(Cl)cc2Cl)c2ccccc21 (configuration not stated) | -6
C[C@H]1CN([C@@H](C)CO)C(=O)c2cc(NS(=O)(=O)c3ccccc3)ccc2O[C@H]1CN(C)C(=O)Nc1ccc(C(F)(F)F)cc1 | 13
CCC(=O)c1cn(CC(=O)O)c2ccccc12 | 21
COC(=O)c1cc(C(=O)NCc2ccco2)cc([N+](=O)[O-])c1 | -9
COc1ccc(Cl)cc1NC(=O)CCN1C(=O)C2C3C=CC(C4CC34)C2C1=O (configuration not stated) | 6
CCOC(=O)c1c(C)cc(O)cc1O | -18
C[C@@H]1CN([C@H](C)CO)C(=O)Cc2cc(NC(=O)c3ccncc3)ccc2O[C@@H]1CN(C)Cc1ccc(C(F)(F)F)cc1 | 10
CNC[C@H]1Oc2c(N)cccc2C(=O)N([C@H](C)CO)C[C@H]1C | 19
C[C@@H]1CN([C@@H](C)CO)C(=O)c2cc(NS(C)(=O)=O)ccc2O[C@H]1CN(C)CC1CCCCC1 | -10
Cc1cc(C(=O)Nc2cccc3c2O[C@@H](CN(C)C(=O)Nc2ccc(F)cc2)[C@H](C)CN([C@@H](C)CO)C3=O)n(C)n1 | 3
COC(=O)c1ccc(C(=O)OC)c(NC(=O)CSc2ccccn2)c1 | 50
CC1(C)Cc2c(sc(NC(=O)C(c3ccccc3)c3ccccc3)c2C#N)CO1 | 51
CC(=O)c1ccc(NC(=O)CSc2nc(C)c(C)c(=O)[nH]2)cc1 | 1
COc1ccc2c(c1)SC1=NC(=O)C(Cc3ccccc3)C(=O)N12 (configuration not stated) | 6
C[C@H](CO)N1C[C@H](C)[C@H](CN(C)Cc2ccncc2)Oc2ccc(NC(=O)CCN3CCOCC3)cc2C1=O | 8
C[C@H]1CN([C@@H](C)CO)C(=O)c2cccc(NC(=O)c3nc4ccccc4s3)c2O[C@H]1CN(C)Cc1ccc(C(=O)Nc2ccccc2N)cc1 | 127*
Cc1cc2nc(Sc3c([N+](=O)[O-])nc(C)n3Cc3ccccc3)[nH]c2cc1C | 107*
CC(C)NC(=O)N(C)C[C@H]1Oc2ccc(NC(=O)CCN3CCOCC3)cc2C(=O)N([C@@H](C)CO)C[C@@H]1C | 16
Clc1ccccc1-c1nnc(SCc2nc3ccccc3[nH]2)n1-c1ccccc1 | 0
COC(=O)c1cc(OC)c(OC)cc1NC(=O)c1cc(-c2ccc(C)o2)nc2ccccc12 | 93*
C[C@H]1CN([C@@H](C)CO)C(=O)c2cc(NC(=O)Nc3ccc(F)cc3)ccc2O[C@@H]1CN(C)CC1CC1 | 4
C[C@H](CO)N1C[C@H](C)[C@H](CN(C)C(=O)Nc2ccccc2)Oc2ccc(N(C)C)cc2CC1=O | 25
c1ccc(Nc2ccc(-n3ccnc3)nn2)cc1 | 37
CCc1ccc(OCC(=O)Nc2ccccc2-c2nc3ccccc3s2)cc1 | -19
COc1ccc(NC(=O)CSc2ncccn2)cc1Cl | 21
C[C@H]1CN([C@@H](C)CO)C(=O)Cc2cc(NC(=O)Cn3cnnn3)ccc2O[C@H]1CN(C)C(=O)Nc1ccc2c(c1)OCO2 | -7
C[C@@H]1CN([C@H](C)CO)C(=O)Cc2cc(NC(=O)NC3CCCCC3)ccc2O[C@H]1CN(C)Cc1ccc(Cl)c(Cl)c1 | 21

Molecules listed so far containing a thiophene ring, fused or not (2):
SMILES | NOMO-1 viab
CCN(CC)CCNc1ncnc2sc3c(c12)CC(C)(C)OC3 | 25
CC1(C)Cc2c(sc(NC(=O)C(c3ccccc3)c3ccccc3)c2C#N)CO1 | 51

Next section
SMILES | NOMO-1 viab
COc1ccc(S(=O)(=O)N(C)CC(=O)Nc2ccc(Br)cc2F)cc1Cl | 24
NC(=S)c1cnn2c(C(F)(F)F)cc(C(F)(F)F)nc12 | -14
S=c1[nH]nc(Cc2ccsc2)n1Cc1ccccc1 | 9
COc1ccc(S(=O)(=O)N(C)C[C@@H]2Oc3ccc(NC(=O)Nc4ccc(F)cc4)cc3C(=O)N([C@@H](C)CO)C[C@H]2C)cc1 | 2
Cc1noc(C)c1S(=O)(=O)Nc1ccc2c(c1)CC(=O)N([C@H](C)CO)C[C@@H](C)[C@H](CN(C)S(=O)(=O)c1ccc(Cl)cc1)O2 | 6
COc1ccc(S(=O)(=O)N(C)C[C@H]2Oc3ccc(NC(=O)NC4CCCCC4)cc3C(=O)N([C@H](C)CO)C[C@H]2C)cc1 | 2
COc1ccc(OC)c(NC(=O)CC2NCCNC2=O)c1 (configuration not stated) | 21
CC(C)NC(=O)N(C)C[C@@H]1Oc2ccc(NS(=O)(=O)c3ccccc3)cc2CC(=O)N([C@H](C)CO)C[C@H]1C | 2
COc1ccc(-n2c(-c3ccc(Cl)cc3)n[nH]c2=S)cc1 | 1
C[C@@H]1CN([C@H](C)CO)C(=O)c2cc(NC(=O)Nc3ccccc3)ccc2O[C@@H]1CN(C)Cc1ccc(C(=O)O)cc1 | -10
COc1cc(S(=O)(=O)NCc2cccnc2)ccc1F | 11
COC(=O)c1ccc(Cl)c(NC(=O)CSc2nc(C)cc(C(F)(F)F)n2)c1 | 41
N#Cc1c(-c2ccc(Cl)cc2)csc1S(=O)C1CCCCC1 (configuration not stated) | 24
C[C@H](CO)N1C[C@H](C)[C@@H](CN(C)C(=O)Nc2ccccc2)Oc2c(NC(=O)c3cnccn3)cccc2C1=O | -15
O=C(CC1Sc2ccccc2NC1=O)Nc1ccc2c(c1)OCCO2 (configuration not stated) | 4
C[C@@H]1CN([C@H](C)CO)C(=O)c2cccc(NS(=O)(=O)c3ccc(F)cc3)c2O[C@@H]1CN(C)Cc1ccccc1 | 14
C[C@@H]1CN([C@H](C)CO)C(=O)Cc2cc(NC(=O)Cn3cnnn3)ccc2O[C@@H]1CN(C)S(=O)(=O)c1ccccc1 | 7
C=CCSc1c2c(c(C#N)c3nc4ccccc4n13)CCC2 | 59
N#Cc1ccc2ccn(CC(=O)NCc3ccco3)c2c1 | 8
C[C@@H]1CCCCO[C@H](CN(C)S(=O)(=O)c2cn(C)cn2)[C@@H](C)CN([C@H](C)CO)C(=O)c2cc(NC(=O)Nc3ccccc3)ccc2O1 | -3
C[C@H](CO)N1C[C@H](C)[C@@H](CN(C)S(=O)(=O)c2ccccc2)Oc2ccc(NS(C)(=O)=O)cc2C1=O | 37
N#Cc1c(NC(=O)CNS(=O)(=O)c2cccc(Cl)c2)sc2c1CCCC2 | 1
C[C@H]1CN([C@@H](C)CO)C(=O)c2cccc(NC(=O)Nc3ccc(F)cc3)c2O[C@H]1CN(C)S(=O)(=O)c1ccccc1 | 18
Cc1cc2c(C(C)C)c(O)c(O)c(C=O)c2c(O)c1-c1c(C)cc2c(C(C)C)c(O)c(O)c(C=O)c2c1O | 111*
C[C@H]1CN([C@@H](C)CO)C(=O)c2cccc(NC(=O)c3cnccn3)c2O[C@H]1CN(C)C(=O)Nc1ccc(C(F)(F)F)cc1 | 33
Remaining list, next part:
SMILES | NOMO-1 viab
COc1ccc(NC(=O)N(C)C[C@@H]2Oc3ccc(NC(=O)C4CCCCC4)cc3CC(=O)N([C@H](C)CO)C[C@@H]2C)cc1 | 10
O=C(COc1ccc([N+](=O)[O-])cc1)Nc1ccc(-c2nc3ccccc3s2)c(Cl)c1 | 5
COC(=O)c1ccccc1O[C@@H]1O[C@H](CO[C@@H]2OC[C@@H](O)[C@H](O)[C@H]2O)[C@@H](O)[C@H](O)[C@H]1O | -13
CC(C)(O)CCC(=O)C(C)(O)C1C(O)CC2(C)C3CC=C4C(CC(O)C(OC5OC(CO)C(O)C(O)C5O)C4(C)C)C3(C)C(=O)CC12C (configuration not stated) | 8
C[C@H](CO)N1C[C@H](C)[C@H](CN(C)S(=O)(=O)c2cccs2)Oc2ccc(NC(=O)Nc3cccc4ccccc34)cc2CC1=O | 19
CC1(C)C2CCC1(C)C(NC(=O)c1cccc(C(F)(F)F)c1)C2 (configuration not stated) | 46
Cc1ccc(S(=O)(=O)Nc2ccc3c(c2)C(=O)N([C@@H](C)CO)C[C@@H](C)[C@H](CN(C)S(=O)(=O)c2ccc(Cl)cc2)O3)cc1 | 12
Cc1cc([N+](=O)[O-])nn1CC(=O)N1CCOCC1 | -3
Cc1ccc(Oc2ncnc3sccc23)cc1 | 5
COc1cccc(S(=O)(=O)N2CCCC2C(=O)O)c1 (configuration not stated) | 6
CCC(Sc1nnnn1-c1ccccc1)C(=O)Nc1sc2c(c1C#N)CCCC2 (configuration not stated) | 4
CCn1c2ccccc2c2nnc(SCC(=O)O)nc21 | 12
CC(CN1CCN(Cc2ccccc2)CC1)N(C(=O)c1ccc(C(C)(C)C)cc1)c1ccccn1 (configuration not stated) | 45
CCc1cc2c(SCC(=O)Nc3cccc(OC)c3)ncnc2s1 | 0
C[C@H]1CN([C@@H](C)CO)C(=O)Cc2cc(NC(=O)Nc3ccccc3)ccc2O[C@@H]1CN(C)Cc1ccc(Oc2ccccc2)cc1 | 58
C[C@H]1CN([C@@H](C)CO)C(=O)Cc2cc(NC(=O)C3CC3)ccc2O[C@@H]1CN(C)S(C)(=O)=O | -5
C[C@@H]1CN([C@@H](C)CO)C(=O)c2cc(NS(=O)(=O)c3ccc(Cl)cc3)ccc2O[C@H]1CN(C)Cc1ccc(Oc2ccccc2)cc1 | 109*
CC1(C)C2CC(=O)O[C@@]3(C)C4=CC(=O)O[C@@H](c5ccoc5)[C@]4(C)CCC3[C@@]2(C)C=C[C@H]1O (some centres not stated) | 34

Some of the compounds tested, so the mix of outcomes need not match the whole.
